# From PubChem BioAssay
# StopGo FLuc = FMDV 2A StopGo reporter, firefly signal; AID 1745856; Potency, µM (doses to about 57.5 µM), for inactives: top-dose signal change, negative = less light; HEK cells with a luciferase reporter of 2A StopGo recoding; 0.23% of 120,000 active; active = well fitted falling curve with a large enough effect; inconclusive = small, poorly fitted or top-dose-only effect; inactive = no such curve, though single readings can be large or run the other way; also: nearly all actives have a fitted effect of over 60% in size; overnight with compound
# StopGo RLuc = lowers the Renilla signal of an FMDV 2A StopGo reporter; 0.32% of 120,000 active; HEK cells with a luciferase reporter of 2A StopGo recoding; AID 1745857; Potency, µM (doses to about 57.5 µM), for the others: at the top dose signal change, negative = less light; active means well fitted falling curve with a large enough effect; inconclusive means small, poorly fitted or top-dose-only effect; inactive means no such curve, though single readings can be large or run the other way; also: nearly all actives have a fitted effect of over 55% in size; overnight with compound
# * marks the source's active call; other numbers are inactive results; u = inconclusive; & = joins results of further samples; [ ] = dose if it differs, or a comment. % is scaled to controls: 0 for no effect and ±100 for the full control effect; potency is read from the fitted curve at half-maximal effect.
SMILES,StopGo FLuc,StopGo RLuc
Cc1cc(S(=O)(=O)Nc2ccc(F)c(C(F)(F)F)c2)sc1C(=O)O,3%,0%
COc1ccc(Nc2nc(-c3cc4cc(Cl)ccc4oc3=O)cs2)c(OC)c1,-9%,-6%
CCc1c(/C(=N/O)c2ccc(C)cc2)oc2ccc3c(C)cc(=O)oc3c12,u,-5%[1.06 µM]
CC(C)(C)C(=O)COC(=O)c1ccccc1SCC(=O)NCCc1ccc2c(c1)OCCO2,-13%,21%
Cc1ccccc1/C=C(\C#N)c1nc(-c2ccc(Cl)cc2)cs1,9%,3%
CC(=O)c1ccc(N2CCN(C(=O)c3ccc(Cn4c(=O)[nH]c5ccccc5c4=O)cc3)CC2)cc1,4%,89%[activator]
NS(=O)(=O)c1ccc(N/N=C/c2cccc(/C=N/Nc3ccc(S(N)(=O)=O)cc3[N+](=O)[O-])c2)c([N+](=O)[O-])c1,11%,9%
CCn1c(=O)c2sccc2n2c(CCC(=O)Nc3ccc(OC)c(Cl)c3)nnc12,-6%,5%
Clc1ccc(Sc2nc(-c3ccccc3)cs2)cc1,255%[activator],16%
CCCOc1ccc(NC(=O)COc2cccc(C)c2C)c2cccnc12,-12%,-15%
COc1ccc(Cl)cc1C(=O)NCc1nnnn1-c1ccccc1,-14%,-5%
CCOc1ccc(NC(=O)c2cnn(-c3ccccc3)c2-n2cccc2)cc1,2%,-7%
CC(=O)N1c2ccc(S(=O)(=O)N3CCCCCC3)cc2CC1C(=O)NCc1ccccc1C (stereo not given),-13%,-9%
Cc1ccc(/C=C(\C#N)C(=O)Nc2ccc(Br)cc2)o1,27%,1%
CN(CC(=O)Nc1ccc(Cl)c(C(F)(F)F)c1)CC(=O)NC1CCCC1,u,u
O=C(O)CCCc1ccccc1,0%[11.5 µM],4%
CC(CC(=O)C1C(C)C=CCC1(C)C)NCc1ccccc1 (stereo not given),4%,1%
CC(CC(=O)Nc1ccc(F)cc1)S(=O)(=O)c1cc2c3c(c1)CCN3C(=O)CC2 (stereo not given),-13%,-6%
CCOc1cccc2c(C)nc(Nc3nc(CSc4ccc(C)cc4)cc(=O)[nH]3)nc12,-4%,-4%
O=C(O)CSc1cc(F)ccc1F,2%,4%
COc1ccccc1OC(C)C(=O)N1CCN(CCc2ccccn2)CC1 (stereo not given),-15%,-10%
O=C(/C=C/c1ccccc1)Nc1ccc2c(c1)CCC2,195%[activator],34%[activator]
Fc1ccc(Cc2cn3cc(-c4ccc(F)cc4)nc3s2)cc1,200%[activator],19%
O=C(O)c1ccc(Br)cc1F,4%,0%
CC(=O)N1CCc2cc(Br)cc(S(=O)(=O)NCCc3cccc(C)c3)c21,-21%,250%[activator]
Cc1ccccc1NC(=O)CSc1nc2c(cc1C#N)CCCC2,107%[activator],11%
CCC(C)n1c(=N)c(S(=O)(=O)c2ccccc2)cc2c(=O)n3ccccc3nc21 (stereo not given),26%,15%
O=C(Cn1ncn2cccc2c1=O)NCc1cccc(Br)c1,70%[activator],192%[activator]
O=C(c1ccc2c(c1)N(Cc1c(F)cccc1Cl)C(=O)c1ccccc1S2)N1CCOCC1,-14%,0%
Cc1ccc(OCc2ccc(C(N)=O)cc2)cc1,0%,25%
CC1=C(C(=O)Nc2ccc(Cl)cc2)C(CC(C)C)n2nc(SCc3ccccc3C)nc2N1 (stereo not given),15%,-12%
Nc1nc(Nc2ccc(F)cc2)sc1C(=O)c1ccccc1Cl,0%,-34%
CCc1ccc2c(CN(C)CCOc3ccccc3C)cc(=O)oc2c1,-2%,1%
Cc1ccc(-c2nc3scc(CCNC(=O)Cc4ccc(Cl)cc4)n3n2)cc1,-7%,2%
Cn1c(SCC(=O)Nc2sccc2C#N)nnc1-c1ccc(Cl)cc1,4%,u
O=S(=O)(c1ccc(-c2csc(NC3CCCC3)n2)cc1)N1CCCC1,u,u
CONC(=O)C(NC(=O)C12CC3CC(CC(C3)C1)C2)C(C)C (stereo not given),0%,4%
COc1cn(-c2ccccc2)nc1C(=O)OCC(=O)NC1CC1,9%,6%
CC(=O)OCC(=O)[C@@]1(O)[C@H](C)C[C@H]2[C@@H]3CCC4=CC(=O)C=C[C@]4(C)[C@@]3(F)[C@@H](O)C[C@@]21C,5%[11.5 µM],19%
CN(C)c1ccc(NC(=O)CN2C(=O)c3ccccc3Sc3ccc(C(=O)N4CCCC4)cc32)cc1,-21%,-5%
COc1ccc(NC(=O)C2CCCN(S(=O)(=O)c3ccc(Cl)cc3)C2)cc1 (stereo not given),-15%,-4%
CC(C)C(=O)Nc1ccc2oc(-c3ccc(F)cc3Cl)nc2c1,227%[activator],8%
O=C(Nc1ccc(Br)cc1F)c1ccc(-c2ccccc2)cc1,53%[activator],9%
COc1cc(C)c(/C=C(\C#N)C(=O)Nc2cccc(Cl)c2C)cc1C(C)C,2%,2%
Cc1ccc2cc(C(=O)N3CCN(S(=O)(=O)c4cccs4)CC3)[nH]c2c1,54%[activator],-2%
CCCn1nc(C(=O)OCC(=O)Nc2ccc(C(N)=O)cc2)c2ccccc2c1=O,2%,2%
CCc1ccc(NC(=O)C(C)n2nnc3sc(-c4ccccc4)cc3c2=O)cc1 (stereo not given),4%,-11%
O=C(Nc1cc(C(F)(F)F)ccc1F)c1cccc(COc2ccc(Cl)cc2)c1,24%,3%
CCNC(=O)NC(=O)CSc1nc(C2CC2)nc2ccccc12,12%,-3%
Cc1ncsc1C(=O)N1CCCC1Cc1c(F)cccc1Cl (stereo not given),-9%,6%
CCC(C(=O)Nc1ccccc1OCc1cc(=O)n2ccc(C)cc2n1)c1ccccc1 (stereo not given),u,-18%
CCS(=O)(=O)c1ncc(N(Cc2ccccc2)Cc2ccco2)c(C(=O)Nc2ccccc2C)n1,9%,-9%
O=C(CCC(=O)c1cccs1)OCC(=O)c1ccc(-c2ccccc2)cc1,21%,-8%
COCCNC(=O)C1CCN(S(=O)(=O)c2ccc3c(c2)CCCN3C(C)=O)CC1,-2%,0%
Cn1nnnc1SCCCNCc1cccc(OCc2ccc(F)cc2)c1,20%,2%
CC1(C(=O)NCc2ccccc2)Cn2c(ccc2-c2ccco2)C(=O)N1Cc1ccccc1 (stereo not given),10%,36%[activator]
CN(Cc1ccccc1Cl)C(=O)Cn1c(=O)c2c(ncn2C)n(C)c1=O,2%,-4%
COc1ccc(Cc2n[nH]c(=S)n2CC(C)C)cc1,9%,6%
O=C(NC1CCCC(C(F)(F)F)C1)c1cnc2ccccn2c1=O (stereo not given),0%,0%
O=C1CCCc2c1cc(C(=O)NC1CCCCCC1)c(=O)n2-c1ccc(C(F)(F)F)cc1,-3%,19%

# Some values from the entries so far.
# StopGo FLuc result of CCCn1nc(C(=O)OCC(=O)Nc2ccc(C(N)=O)cc2)c2ccccc2c1=O stands at 2%
# StopGo FLuc result of CCc1ccc(NC(=O)C(C)n2nnc3sc(-c4ccccc4)cc3c2=O)cc1 (stereo not given) stands at 4%

# As a short view, four of the compounds above:
SMILES,StopGo FLuc,StopGo RLuc
CN(Cc1ccccc1Cl)C(=O)Cn1c(=O)c2c(ncn2C)n(C)c1=O,2%,-4%
COc1ccc(Cc2n[nH]c(=S)n2CC(C)C)cc1,9%,6%
O=C(NC1CCCC(C(F)(F)F)C1)c1cnc2ccccn2c1=O (stereo not given),0%,0%
O=C1CCCc2c1cc(C(=O)NC1CCCCCC1)c(=O)n2-c1ccc(C(F)(F)F)cc1,-3%,19%

# Further results follow.
SMILES,StopGo FLuc,StopGo RLuc
CN(CC(=O)NCC(F)(F)F)Cc1ccccc1,16%,40%
Cc1cc(C(=O)NCC2CCCCC2)c2ccccc2n1,-4%,4%
CC(O)CN1CCN(CC(=O)[O-])CCN(CC(=O)[O-])CCN(CC(=O)[O-])CC1.[Gd+3] (stereo not given),-4%,-4%
Cc1nc2c(-c3ccc(F)cc3)c(C)nn2c(C)c1CCC(=O)NCc1ccc(F)cc1,-14%,-14%
Cc1nn(C)c2nc(C3CC3)cc(C(=O)N3CCN(c4ncccn4)CC3)c12,-9%,-6%
CCOc1cc(CNCc2cccnc2)cc(Cl)c1OCC,1%,-4%
CCCCOC(=O)c1ccc(NC(=O)Cn2nnc3sc4c(c3c2=O)CCCC4)cc1,-8%,-11%
O=C(NCCc1ccccc1)c1ccc2nc(N3CCOCC3)sc2c1,79%[activator],-1%
CCNC(=O)NC(=O)CSc1nc2ccccc2c(=O)n1-c1ccc(F)cc1F,26%,0%
CCOc1ccc(NC(=O)CSc2nc3c(c(=O)[nH]2)CN(Cc2ccc(Cl)cc2)CC3)cc1,-13%,-19%
COc1ccc(/C=C/c2nc(C#N)c(NCc3ccco3)o2)cc1OC,28%,54%[activator]
Cc1cccc(OCc2nnc(SCC(=O)Nc3ccc(C)cc3C)o2)c1,-4%,-10%
CC(C)NC(=O)/C(=C/c1ccc(-c2cccc(C(F)(F)F)c2)o1)NC(=O)c1ccccc1,0%,58%[activator]
COc1ccc(NC(=O)c2sc3c(c2C)C(c2cccc(O)c2)CC(=O)N3)cc1 (stereo not given),79%[activator],-9%
Cc1occc1-c1nc(-c2ccc(Br)cc2)no1,174%[activator],8%
O/N=C(/c1ccc(F)cc1)c1ccc(O)cc1O,0%,8%
CCN(CC)c1nc2ccccc2s1,0%,14%
Fc1cccc(NC(=S)NCc2ccccc2)c1,52%[activator],160%[activator]
CSc1ccc(CCNC(=O)C2=C(C)C(=O)OC23CCCCC3)cc1,23%,1%
COc1ccc(C(=O)Nc2c(N3CCCC3)c3ccccc3oc2=O)cc1,19%,1%

# In the list so far, 6 have a cyano group.
SMILES,StopGo FLuc,StopGo RLuc
Cc1ccccc1/C=C(\C#N)c1nc(-c2ccc(Cl)cc2)cs1,9%,3%
Cc1ccc(/C=C(\C#N)C(=O)Nc2ccc(Br)cc2)o1,27%,1%
Cc1ccccc1NC(=O)CSc1nc2c(cc1C#N)CCCC2,107%[activator],11%
Cn1c(SCC(=O)Nc2sccc2C#N)nnc1-c1ccc(Cl)cc1,4%,u
COc1cc(C)c(/C=C(\C#N)C(=O)Nc2cccc(Cl)c2C)cc1C(C)C,2%,2%
COc1ccc(/C=C/c2nc(C#N)c(NCc3ccco3)o2)cc1OC,28%,54%[activator]

# (more compounds)
SMILES,StopGo FLuc,StopGo RLuc
CCOc1ccc(C(=O)CC2(O)C(=O)Nc3ccc(Br)cc32)cc1 (stereo not given),24%,3%[1.06 µM]
CCCSc1ncc(Cl)c(C(=O)Nc2ccc(C)cc2C)n1,-10%,-4%
Cc1ccc(NCC(=O)N2CCN(S(=O)(=O)c3ccc4ccccc4c3)CC2)cc1F,-9%,-11%
Cc1ccc2c(CN(C)CCOc3ccc(Cl)cc3)cc(=O)oc2c1,23%,20%
CN(C)C(=S)SCC(=O)NC(=O)NCc1ccccc1,10%,0%
COc1ccc(CNCCC(c2ccc(C)cc2)c2ccco2)cc1 (stereo not given),0%,0%
COC(=O)[C@H](CC(C)C)N(CCCc1cn(Cc2ccccc2)nn1)S(=O)(=O)c1ccc(F)cc1Br,-24%,34%
COc1ccc2c(CNc3ccc(C)cc3)cc(=O)oc2c1,72%[activator],18%
CCn1c(C(=O)N2CCCC(C(=O)N3CCOCC3)C2)cc2ccccc21 (stereo not given),-1%,-5%
CN(c1ccc(F)cc1)S(=O)(=O)N1CCCC(C(=O)NCCc2ccccc2)C1 (stereo not given),16%,u
CC(C)C(NC(=O)c1c(F)cccc1F)C(=O)NCc1cnn(-c2ccccc2)c1 (stereo not given),-3%,4%
COc1ccc(-c2c(C)oc3cc(OC)ccc3c2=O)cc1,27%,14%
Cc1ccc(-c2csc(NC(=O)c3ccccc3F)n2)s1,0%,4%
O=C(Cc1ccc(Br)cc1)N(Cc1nnc(-c2ccccc2Cl)o1)C1CC1,-8%,32%[activator]
COc1cccc(-c2cn3c(n2)sc2cc(C(=O)NCCCc4ccccc4)ccc23)c1,20%,-27%
CCN(CC)CCNC(=O)Cc1n[nH]c(=O)c2ccccc12,-11%,-8%
NCC1Cc2ccccc2O1 (stereo not given),10%,-8%
Cc1ccc(NS(=O)(=O)c2cc(C(=O)O)cc3c2CCC3)cc1F,0%,80%[activator]
O=C(c1ccc2cc[nH]c2c1)N1CCN(S(=O)(=O)c2cccc3nonc23)CC1,1%,17%
CCOC(=O)C1CCCN(C(=O)c2ccc(NC(=O)c3nsc4ccccc34)cc2)C1 (stereo not given),59%[activator],24%
Cc1cccc(NC(=O)C2CC(=O)n3c(nc4ccccc43)N2)c1 (stereo not given),-1%,-10%
COc1cccc(C(=O)Nc2ccc(S(=O)(=O)N(Cc3ccccc3)c3ccccc3)cc2)c1,u,u
CCc1ccc(NC(=O)c2cc(S(=O)(=O)N3CCCCCC3)ccc2F)cc1,29%,17%
COC(=O)/C=C/C(=O)Nc1cc(Cl)ccc1O,6%,-4%
Cn1ccc2c(OCC(=O)Nc3cc(C(F)(F)F)ccc3Cl)cccc2c1=O,-1%,1%
COCCCNc1oc(-c2cccc3ccccc23)nc1C#N,175%[activator],21%
Cc1c(C(=O)Nc2cccc(C(F)(F)F)c2)oc2ccc3c(c12)C(=O)CC(C)(C)O3,192%[activator],4%
COc1ccc(Cl)cc1S(=O)(=O)NCCO,-4%,95%[activator]
Cc1c(CC(=O)NCc2ccc(F)cc2)c(=O)oc2cc(O)ccc12,45%[activator],68%[activator]
COc1ccc(-n2c(SCC(=O)Nc3cccc(C#N)c3)nnc2-c2ccccc2OC)cc1,1%,48%[activator]
CC(C)OCCN1CCN(c2oc(-c3ccco3)nc2C#N)CC1,4%,-3%
Fc1cccc(Cl)c1CNc1n[nH]c(-c2ccco2)n1,80%&116%[activator],8%&6%
Cc1ccc(NC(=O)C(Sc2nnnn2C2CCCC2)c2ccccc2)cc1 (stereo not given),11%,25%
CC(=O)N(Cc1ccc(C(C)C)cc1)C1CC1,20%,11%
O=C(NCc1ccc(Cl)cc1)c1ccc(CNS(=O)(=O)c2ccc(F)cc2)cc1,-3%&-12%,-3%&-4%
